Source: PubChem BioAssay (National Center for Advancing Translational Sciences (NCATS))
HPGD block – HPGD (human) dehydrogenase inhibition; 150,000 tested, 4.3% active; purified HPGD, NADH fluorescence kinetic, PGE2 substrate; P15428; Potency, µM, for inactives: at the top dose activity change, negative = inhibition, most hits filed as inhibitors; AID 894; active = well fitted inhibition curve with a large enough effect (not every such curve was filed as active); inconclusive = small, poorly fitted or top-dose-only effect, or another doubt; inactive = no such curve, though single readings can be large or run the other way;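 also: top concentration of the series not given in the record; plate controls included wells without enzyme; inactives centre near -10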
Target sequence (P15428 whole entry, looked up): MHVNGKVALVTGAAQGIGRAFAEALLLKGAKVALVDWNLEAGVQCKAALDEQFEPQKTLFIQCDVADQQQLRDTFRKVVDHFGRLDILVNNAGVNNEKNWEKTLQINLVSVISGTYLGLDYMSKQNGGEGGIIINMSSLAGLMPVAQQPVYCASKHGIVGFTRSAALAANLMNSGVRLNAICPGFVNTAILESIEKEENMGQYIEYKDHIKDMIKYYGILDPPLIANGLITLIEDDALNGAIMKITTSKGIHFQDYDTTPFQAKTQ
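NADH formation kinetics: reaction with 30 uM PGE2 and 1 mM NAD+ (final), 20 nM enzyme, Tris-HCl pH 8 with Tween 20, after 15 min compound preincubation at room temperature. Fluorescence change, last versus first of five reads.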
The depositor's hits bear a star; ? = inconclusive; & = joins results of further samples. % is scaled to controls: 0 for no effect and ±100 for the full control effect; potency is read from the fitted curve at half-maximal effect. Some of the compounds tested; rates above refer to the full screens.

HPGD block	compound
?	COc1ccccc1-c1nc(C#N)c(N2CCC(Cc3ccccc3)CC2)o1
3.3%	COC(=O)CNC(=O)c1c(C)cc(=O)oc1C
-10.5%	COC(=O)CC1SC(=O)NC1=Nc1ccc(OC)cc1 (centres undefined)
-17.6%	COc1ccccc1CNC(=O)C1CCC(CNc2c(N3CCOCC3)c(=O)c2=O)CC1 (centres undefined)
-15.9%	CC1=NN(c2nc(-c3ccc(C)cc3)cs2)C(=O)C1N=Nc1ccc2ccccc2c1 (centres undefined)
-7.4%	CCOC(=O)CCc1nn(C)c(=O)c2ccccc12
-8.6%	O=C1c2ccccc2C(Nc2cccnc2)N1Cc1ccccc1 (centres undefined)
5.0%	Cc1ccccc1NC(=O)NCCCN1CCN(C2CCCCC2)CC1
-7.5%	CCn1c(SCC(=O)Nc2sc(C)c(C)c2C#N)nnc1C(C)C
-9.5%	O=C(CC1Sc2ccccc2NC1=O)c1ccc(Br)cc1 (centres undefined)
-12.6%	CCCNS(=O)(=O)c1ccc(NC(=O)c2ccccn2)cc1
-4.3%	COc1ccc2c(c1)C(SCC(=O)NCc1ccccc1)CC(C)(C)O2 (centres undefined)
-8.5%	CO[C@@H]1/C=C\O[C@]2(C)Oc3c(C)c(O)c4c(O)c(c(CN(C)C)c(O)c4c3C2=O)NC(=O)/C(C)=C\C=C[C@@H](C)[C@@H](O)[C@H](C)[C@@H](O)[C@H](C)[C@H](OC(C)=O)[C@@H]1C
-8.9%	COc1ccc(-c2cc(CCCC(=O)NCCc3ccc(OC)cc3OC)no2)cc1
-18.3%	COc1cccc(C2/C(=C(/O)c3ccncc3)C(=O)C(=O)N2CCCN(C)C)c1 (centres undefined)
-12.9%	Cc1ccc(-c2nnc(N(C)C(=O)c3ccccn3)s2)cn1
-19.8%	COc1cc(C(=O)Nc2ccc(S(=O)(=O)Nc3cc(C)on3)cc2)cc(OC)c1OC
-11.0%	CC1(C)CCc2nc(SCc3ccccc3)c(C#N)cc2C1
-2.9%	CCOC(=O)c1[nH]c2c(c1-c1ccccc1)C(=O)CC(c1ccc(Cl)cc1)C2 (centres undefined)
?	COc1cccc(Cn2c(=O)cnc3cnc(Oc4cccc(Cl)c4)nc32)c1
-1.8%	Cc1ccc(C(=O)N2CCN(Cc3ccc4c(c3)OCO4)CC2)o1
-14.8%	CC(C)(/C=N/O)/[N+]([O-])=C/C=[N+](\[O-])C(C)(C)/C=N/O
-29.8%	COC(=O)CSc1ccccc1C(=O)OC
-9.3%	O=C(NCC1CCCO1)C1CCCCN1S(=O)(=O)c1ccc(F)cc1 (centres undefined)
1.9%	CN(C(=O)C12CC3CC(CC(C3)C1)C2)C1(C)CCS(=O)(=O)C1 (centres undefined)
?	Cc1ccsc1/C=C/C1=Cc2c(sc(NC(=O)CSc3n[nH]c(N)n3)c2C#N)C(C)(C)C1
-17.6%	COC(=O)[C@]1(C)CCC[C@]2(C)c3ccc(C(C)C)cc3C(=O)CC12 (some centres undefined)
-11.5%	Cc1sc2ncnc(SCC(=O)c3ccc4c(c3)OCCO4)c2c1-c1ccccc1
-11.3%	Cc1ccc(C2C(C(N)=S)=C(N)OC3=C2C(=O)CC(C)(C)C3)cc1 (centres undefined)
-11.1%	Cc1[nH]nc2c1C1(CCOCC1)C(C#N)=C(N)O2
-6.0%	C=C(C)Cn1c(CCCNC(=O)CCC)nc2ccccc21
-22.7%	O=C(CSc1nc2ccccc2o1)Nc1nc(-c2ccccc2)c(-c2ccccc2)s1
-19.9%	COc1ccc(OC)c(/C=C/C(=O)Nc2ccc3c(c2)CCC3)c1
-4.3%	COC(=O)[C@H](CCSC)NC(=O)NC1CCN(Cc2ccccc2)CC1
-1.5%	CC#CCN1c2ccccc2[C@]23C[C@@H](C(=O)OC)N(S(=O)(=O)c4ccc(OC)cc4)C2=NC(C(=O)OC)=C(C(=O)OC)[C@H]13
-0.7%	CCOCCCNC(=O)C(=O)NCCCOCC
?	CN(Cc1ccccc1)S(=O)(=O)c1ccc2c(c1)OCCO2
25.1µM*	COc1ccc2cnnc(SCC(=O)Nc3ccccc3)c2c1OC
-0.3%	CC1=CC(C)(C)N(C(=O)CSc2nncn2C)c2ccccc21
-11.6%	CCCCOCCCNC(=O)c1ccc(OC)cc1
-24.5%	Cn1c(=O)oc2cc(S(=O)(=O)N3CCCc4ccccc43)ccc21
0.6%	C=CCn1c(=O)n(CCC#N)c(=O)n(CCC#N)c1=O
-15.9%	O=C(NCC1CCNCC1)c1ccncc1
-4.2%	Cc1nn(C)c(C(=O)N/N=C/c2ccccc2)c1[N+](=O)[O-]
14.1µM*	COC(=O)c1ccc2c(c1)S(=O)(=O)NC(=NCc1ccco1)S2
-6.9%	CNC(=O)NC1CCCc2ccccc21 (centres undefined)
?	C=CCc1cccc2cc(C(=O)Nc3ccc(S(=O)(=O)Nc4nnc(CC)s4)cc3)c(=O)oc12
-13.9%	Cn1c(=O)[nH]c(=O)c2c1nc(NCCCn1ccnc1)n2Cc1ccc(F)cc1
-20.7%	Cc1cc(SCc2cc(=O)n3ccsc3n2)nc2ccccc12
-2.8%	O=C(Nc1ccc(S(=O)(=O)Nc2nccs2)cc1)/C(=C/c1ccccc1Cl)NC(=O)c1ccccc1
-2.3%	CC(C)C(N)C(=O)NC(Cc1c[nH]c2ccccc12)C(=O)O (centres undefined)
-11.3%	Cc1ccc(S(=O)(=O)N(C)CC(=O)OCC(=O)NC(=O)Nc2ccc3c(c2)OCCO3)cc1
-8.4%	CC(C)CC(NC(=O)C1CCC(C)CC1)C(=O)N1CCN(c2ccccn2)CC1 (centres undefined)
-11.8%	CCC(=O)N1CCCc2cc(S(=O)(=O)N3CCN(c4ccccc4F)CC3)ccc21
1.2%	Cc1cc(C(=O)NCc2cccs2)no1
-6.3%	CC(C)CN1C(=O)NC(NC(=O)c2ccco2)(C(F)(F)F)C1=O (centres undefined)
1.3%	C=CCN1C(=O)C(O)(CC(=O)c2c(C)n[nH]c2C)c2cc(Br)ccc21 (centres undefined)
0.0%	CC(=O)Nc1cccc2c1C(=O)N(c1cccc(C)c1)C2=O
-13.8%	O=C(Nc1ccon1)c1cccc(C(F)(F)F)c1
-11.6%	Cc1cc(Cl)c(S(=O)(=O)Nc2ccc3c(c2)OCCO3)cc1OCC(N)=O

(further entries)
HPGD block	compound
-20.9%	COc1ccc(-c2cc(N)n(S(=O)(=O)c3c(F)c(F)c(F)c(F)c3F)n2)cc1OC
-18.8%	Cc1nn(C)c(C)c1CN(C)C(=O)c1cc2nc(-c3ccco3)cc(C(F)(F)F)n2n1
-6.5%	CC(C)Oc1cc(O)c2c(c1)OCC=C2CCC(=O)O
-0.5%	O=C(COc1ccccc1)Nc1ccccc1N1CCN(c2ccccc2)CC1
-11.8%	Cc1ccc(Cl)cc1NC(=O)C(NS(=O)(=O)c1cccs1)c1ccccc1 (centres undefined)
-13.6%	CCOc1ccc(S(=O)(=O)Nc2ccc(S(=O)(=O)N3CCOCC3)cc2)cc1
-12.7%	C=CCOC(=O)c1[nH]c2c(c1C)C(=O)CC(c1ccco1)C2 (centres undefined)
?	COc1ccc(-c2oc3ncn(CCN4CCOCC4)c(=N)c3c2-c2ccc(OC)cc2)cc1
-3.9%	O=C(CN1C2CCCC1CC(NC(=O)c1ccco1)C2)Nc1ccccc1C(F)(F)F (centres undefined)
1.7%	NNC(=O)CC12CC3CC(C1)CC(n1ncnn1)(C3)C2
-13.4%	COc1ccc2c(c1)C(=O)[C@H](O)[C@@H](c1ccc(OC)c(Br)c1)O2
-4.2%	CCCC(=O)Nc1ccc(S(=O)(=O)N2CCCC2)cc1
-6.4%	O=S(=O)(c1ccc(F)cc1)n1ccc2cccnc21
-19.3%	CCOC(=O)C(C)n1cnc2c1c(=O)[nH]c(=O)n2C (centres undefined)
-2.4%	CC(=O)NCCc1ccc(S(=O)(=O)Nc2cccnc2)cc1
-2.3%	COc1ccccc1NC(=S)N1CCOCC1
-11.1%	CCOC(=O)c1ccc2c(c1)nc(COc1ccc3ccccc3c1)n2CC
-5.0%	COc1cc(C)c(Cl)cc1S(=O)(=O)NCCCN1CCOCC1
-18.3%	CCn1c(/C=C/c2c(C)[nH]c3ccccc23)nc2ccccc2c1=O
-7.8%	COc1ccc(C(=O)CSc2nnc(-c3cccs3)n2-c2ccccc2)cc1
-9.0%	CCOc1nc(N2CCOCC2)nc(C)c1[N+](=O)[O-]
-17.0%	Cc1ccc(NC(=O)CSc2nc3ccccc3c(=O)n2Cc2cccs2)cc1
-4.6%	CCc1ccccc1NC1=NCC(=O)N1C1CCCCC1
-10.0%	CSCCC1NC(=O)N(CC(=O)Nc2ccc(N3CCCCC3)cc2)C1=O (centres undefined)
-4.6%	O=C(COc1ccc(Br)cc1CNCCCN1CCOCC1)Nc1ccccc1
?	COC(=O)c1ccccc1NC(=O)CSc1nc2ccccc2c(=O)[nH]1
-17.0%	CCOC(=O)NC(NC(=S)Nc1ccccc1[N+](=O)[O-])C(Cl)(Cl)Cl (centres undefined)
-20.2%	Cc1nc2cc(NC(=O)CSc3nc4c(C)cccc4cc3C#N)ccc2s1
-5.2%	O=c1c2sccc2nc(SCc2ccc([N+](=O)[O-])cc2)n1Cc1ccccn1
-24.1%	COc1ccc2c(c1)c(=O)oc1cc3oc(C)c(C)c3cc12
-9.6%	O=C(C[n+]1cccc(CNC(=O)c2ccc(OC(F)F)cc2)c1)Nc1cc(C(F)(F)F)ccc1Cl
-14.1%	COc1ccc(N2C(=O)C(O)C2c2ccc(C)cc2)cc1 (centres undefined)
0.1%	Cc1ccc(-c2noc(C3CCCN(C(=O)c4ccccc4)C3)n2)o1 (centres undefined)
-10.9%	COc1ccc(Cl)cc1NC(=O)c1c(-c2ccccc2)noc1C
-6.6%	CCC1=NC(c2ccccc2)N(O)C1(C)C (centres undefined)
-6.6%	CC1=C(C(=O)NC2CCCC(C)C2C)C2(CCCCC2)OC1=O (centres undefined)
-16.0%	COc1ccc(CCNC2CCN(C)CC2)cc1OC
-10.0%	Clc1cc(Br)ccc1OCCN1CCOCC1
-17.0%	CSc1nnc2c(n1)c(C)nn2-c1ccc(C)cc1
14.1µM*	CCOC(=O)c1cc(-c2nnc(SCC(=O)Nc3ccc(F)cc3)o2)c(C)nc1C
-4.2%	COc1ccccc1N1CCN(C(=O)CSc2ccc3c(C)cc(C)nc3n2)CC1
-12.6%	CC(C(=O)Nc1ncc2c(n1)CC(C)(C)CC2=O)N1C(=O)c2ccccc2C1=O (centres undefined)
-5.6%&-9.7%	CC1=C(C(=O)OCc2ccccc2)C(c2ccc(Cl)cc2)NC(=O)N1CCCCCC(=O)O (centres undefined)
-4.2%	CC(=O)c1cccc(NC(=O)c2nccnc2C(=O)O)c1
-15.8%	N=c1c2c3c(sc2nc2n1CCCCC2)CCCC3

At a glance, part of the list above:
HPGD block	compound
-14.1%	COc1ccc(N2C(=O)C(O)C2c2ccc(C)cc2)cc1 (centres undefined)
0.1%	Cc1ccc(-c2noc(C3CCCN(C(=O)c4ccccc4)C3)n2)o1 (centres undefined)

Additional results
HPGD block	compound
-21.8%	CCn1c2ccccc2c2cc(NS(=O)(=O)c3ccccc3C)ccc21
-10.5%	CCCNC(=S)N1CCN(C(c2ccccc2)c2ccccc2)CC1
-8.1%	CN1CCC(=NNC(=O)C(=O)NC2CCCCC2)CC1
-8.5%	CC(C)CCn1c(NCCN(C)C)nc2c1c(=O)[nH]c(=O)n2C
-22.7%	Cc1c(-c2ccccc2)oc2c(C(=O)OCC(=O)Nc3cccc(F)c3)cccc2c1=O
4.6%	COC(=O)COc1ccc(S(=O)(=O)N2CCOCC2)cc1C
?	COc1ccccc1CNC(=O)c1cc2sccc2n1C
-9.8%	Nc1nc(NCc2ccco2)nc(N2CCCCCC2)c1[N+](=O)[O-]
-16.4%	Cc1ccc2nc(CSc3nnc(Cc4cccs4)n3C3CCCCC3)cc(=O)n2c1
-14.5%	Cc1ccc(S(=O)(=O)Cn2nnnc2C(CC(C)C)N2CCN(c3ccc(F)cc3)CC2)cc1 (centres undefined)
20µM*	O=C(c1ccc(Cl)c(F)c1F)N1CCCC1
-0.1%	CC1(C)CC(=O)C([C@H]2C3=C(CC(C)(C)CC3=O)Oc3ccccc32)C(=O)C1
-25.8%	O=C(NCc1ccco1)c1ccc2c(c1)C(=O)N(Cc1ccccc1)C2=O
-21.5%	CC(=O)Nc1ccc2nc(C)n(Cc3ccc(Cl)cc3)c(=O)c2c1
-7.2%	CCCCC#Cc1nc(N)c2ncn([C@@H]3O[C@H](C(=O)NCC)[C@@H](O)[C@H]3O)c2n1

Among those listed so far, 14 have fluorine:
HPGD block	compound
-9.3%	O=C(NCC1CCCO1)C1CCCCN1S(=O)(=O)c1ccc(F)cc1 (centres undefined)
-13.9%	Cn1c(=O)[nH]c(=O)c2c1nc(NCCCn1ccnc1)n2Cc1ccc(F)cc1
-11.8%	CCC(=O)N1CCCc2cc(S(=O)(=O)N3CCN(c4ccccc4F)CC3)ccc21
-6.3%	CC(C)CN1C(=O)NC(NC(=O)c2ccco2)(C(F)(F)F)C1=O (centres undefined)
-13.8%	O=C(Nc1ccon1)c1cccc(C(F)(F)F)c1
-20.9%	COc1ccc(-c2cc(N)n(S(=O)(=O)c3c(F)c(F)c(F)c(F)c3F)n2)cc1OC
-18.8%	Cc1nn(C)c(C)c1CN(C)C(=O)c1cc2nc(-c3ccco3)cc(C(F)(F)F)n2n1
-3.9%	O=C(CN1C2CCCC1CC(NC(=O)c1ccco1)C2)Nc1ccccc1C(F)(F)F (centres undefined)
-6.4%	O=S(=O)(c1ccc(F)cc1)n1ccc2cccnc21
-9.6%	O=C(C[n+]1cccc(CNC(=O)c2ccc(OC(F)F)cc2)c1)Nc1cc(C(F)(F)F)ccc1Cl
14.1µM*	CCOC(=O)c1cc(-c2nnc(SCC(=O)Nc3ccc(F)cc3)o2)c(C)nc1C
-22.7%	Cc1c(-c2ccccc2)oc2c(C(=O)OCC(=O)Nc3cccc(F)c3)cccc2c1=O
-14.5%	Cc1ccc(S(=O)(=O)Cn2nnnc2C(CC(C)C)N2CCN(c3ccc(F)cc3)CC2)cc1 (centres undefined)
20µM*	O=C(c1ccc(Cl)c(F)c1F)N1CCCC1
